MLL AF4-AF9 inh: MLL-AF4/AF9 protein interaction inhibition; P42568; AlphaScreen, biotin-AF4 peptide binding to FLAG-AF9; inhibition, % at 10 µM; actives 0.47% (n = 350,000); AID 651704;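 active = every replicate reaching a set inhibition limit, whatever the replicate mean, cut at about 25% in these data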;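 note: 0% = plate neutral control median and 100% = total signal loss; the record names both 10 and 1 µM as test concentration; the first replicate is given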
Target sequence (P42568 whole entry, looked up): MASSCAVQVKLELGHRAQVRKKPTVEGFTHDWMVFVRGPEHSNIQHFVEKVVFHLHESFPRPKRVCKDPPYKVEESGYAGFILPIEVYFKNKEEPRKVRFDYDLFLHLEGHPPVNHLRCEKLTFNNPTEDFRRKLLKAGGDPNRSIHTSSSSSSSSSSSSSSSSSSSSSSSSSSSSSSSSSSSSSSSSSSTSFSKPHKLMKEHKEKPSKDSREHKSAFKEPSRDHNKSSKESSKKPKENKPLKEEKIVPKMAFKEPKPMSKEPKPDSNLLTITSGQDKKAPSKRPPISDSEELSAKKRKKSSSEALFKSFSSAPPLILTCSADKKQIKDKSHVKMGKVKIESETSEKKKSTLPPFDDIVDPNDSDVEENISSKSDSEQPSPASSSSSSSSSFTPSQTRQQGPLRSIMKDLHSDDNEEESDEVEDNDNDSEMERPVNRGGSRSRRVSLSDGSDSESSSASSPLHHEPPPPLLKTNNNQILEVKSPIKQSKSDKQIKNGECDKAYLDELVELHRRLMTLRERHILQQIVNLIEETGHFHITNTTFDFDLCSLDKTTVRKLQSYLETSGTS
The depositor's hits bear a star; & = joins results of further samples. An excerpt (hit frequency here may not be typical).

SMILES | MLL AF4-AF9 inh
Cc1ccc(S(=O)(=O)N(C)C[C@H]2OCc3ccccc3-c3c(n(C)c4ccccc34)C(=O)N([C@H](C)CO)C[C@@H]2C)cc1 | 0.3
COC(=O)[C@@]12C[C@@H](CC(=O)NCCc3ccccc3OC)C(=O)N(Cc3cccc4ccccc34)C1=CCC(C)(C)C2 | 0.4
CO[C@H]1CN(C)C(=O)c2cc(NC(=O)C3CC3)ccc2OC[C@@H](C)N(C(=O)CN2CCOCC2)C[C@H]1C | -1.3
C[C@@H]1CN([C@H](C)CO)C(=O)c2cccc(NC(=O)Nc3ccc(F)cc3)c2O[C@@H]1CN(C)S(=O)(=O)c1ccc(Cl)cc1 | 4.0
OC[C@@H]1CN(Cc2ccc3c(c2)OCO3)C[C@H](n2cnc3c(N4CCCC4)ncnc32)O1 | -2.8
CNC[C@H]1Oc2ccc(NC(=O)Cc3ccccc3)cc2CC(=O)N([C@@H](C)CO)C[C@H]1C | 2.5
N#Cc1cccc(-c2ccc3c(c2)[C@H]2[C@H](CCN2C(=O)C2CCCCC2)[C@H](CO)N3)c1 | -5.6
C[C@H]1CN([C@@H](C)CO)C(=O)c2cccc(NC(=O)c3ccncc3)c2O[C@@H]1CN(C)C(=O)Nc1cccc2ccccc12 | -2.0
CC(C)[C@H](C)NC(=O)N(C)C[C@H]1OCc2ccccc2-c2c(n(C)c3ccccc23)C(=O)N([C@@H](C)CO)C[C@H]1C | -2.9
O=C(Nc1cccc(Cl)c1)N1C[C@@H]2[C@H](c3ccccc31)[C@H](CO)N2C(=O)C1CCCC1 | 1.6
C[C@@H]1CCCCO[C@H](CN(C)Cc2ccc(C(=O)O)cc2)[C@H](C)CN([C@H](C)CO)C(=O)c2cc(NC(=O)C3CCCCC3)ccc2O1 | 1.8
COc1ccc(CNC(=O)C[C@H]2CC[C@H](NC(=O)Nc3ccc4c(c3)OCO4)[C@H](CO)O2)cc1 | -12
C[C@H](CO)N1C[C@H](C)[C@@H](CN(C)S(=O)(=O)c2cccs2)Oc2ncc(/C=C/c3ccccc3)cc2C1=O | 5.9
C[C@@H]1CN([C@@H](C)CO)C(=O)c2cc(C#CC3CCCCC3)cnc2O[C@H]1CN(C)C(=O)C1CCCCC1 | 4.9
C[C@@H]1CN([C@H](C)CO)C(=O)c2cc(-c3ccccc3)cnc2O[C@@H]1CN(C)Cc1ccc(C(=O)O)cc1 | -2.9

3 consecutive compounds out of the list so far, quoted:
SMILES | MLL AF4-AF9 inh
Cc1ccc(S(=O)(=O)N(C)C[C@H]2OCc3ccccc3-c3c(n(C)c4ccccc34)C(=O)N([C@H](C)CO)C[C@@H]2C)cc1 | 0.3
COC(=O)[C@@]12C[C@@H](CC(=O)NCCc3ccccc3OC)C(=O)N(Cc3cccc4ccccc34)C1=CCC(C)(C)C2 | 0.4
CO[C@H]1CN(C)C(=O)c2cc(NC(=O)C3CC3)ccc2OC[C@@H](C)N(C(=O)CN2CCOCC2)C[C@H]1C | -1.3

3 structures out of the list, sorted by number of heavy atoms, lowest first:
SMILES | MLL AF4-AF9 inh
COc1ccc(CNC(=O)C[C@H]2CC[C@H](NC(=O)Nc3ccc4c(c3)OCO4)[C@H](CO)O2)cc1 | -12
C[C@H](CO)N1C[C@H](C)[C@@H](CN(C)S(=O)(=O)c2cccs2)Oc2ncc(/C=C/c3ccccc3)cc2C1=O | 5.9
CC(C)[C@H](C)NC(=O)N(C)C[C@H]1OCc2ccccc2-c2c(n(C)c3ccccc23)C(=O)N([C@@H](C)CO)C[C@H]1C | -2.9

The list continues.
SMILES | MLL AF4-AF9 inh
CC(C)c1cc(Cn2c3ccccc3c(=O)n2C(C)Cn2cc(C3=CCCCC3)nn2)on1 (centres undefined) | 1.7
CC=Cc1ccc2n(c1=O)C[C@@H]1[C@@H](CO)[C@H](C(=O)N3CCOCC3)[C@H]2N1CC1CCCC1 (mixture of isomers) | 5.4
CC(C)NC(=O)N1[C@H](CO)[C@@H](c2ccc(-c3ccc(F)cc3)cc2)[C@@H]1C#N | 1.6
CC(C)NC(=O)N1[C@H](CO)[C@@H](c2ccc(C#CC3CCCC3)cc2)[C@@H]1C#N | -18
COc1cccc(C#Cc2ccc3c(c2)O[C@@H](CN(C)C(=O)c2ccccn2)[C@@H](C)CN([C@H](C)CO)S3(=O)=O)c1 | 1.4&1.5
C[C@@H]1CN([C@@H](C)CO)C(=O)c2c(c3ccccc3n2C)-c2ccccc2CO[C@@H]1CN(C)C(=O)[C@H](Cc1ccccc1)N(C)C | 9.1
CCC(C)(O)c1cnc(CC(C)C)c(=O)n1O (centres undefined) | -6.4
COc1ccc(CN(C)C[C@@H]2Oc3ccc(NC(=O)Cn4cnnn4)cc3CC(=O)N([C@@H](C)CO)C[C@@H]2C)cc1 | -1.2
COc1ccc(C#Cc2ccc([C@H]3[C@H]4CN(C(=O)Nc5ccc(F)cc5)CCCCN4[C@H]3CO)cc2)cc1 | -8.3
COc1cccc(CNC(=O)C[C@@H]2CC[C@@H](NC(=O)C3CC3)[C@H](CO)O2)c1 | -0.3
COCCNC(=O)C[C@@H]1CC[C@H]2[C@@H](COC[C@H](O)CN2Cc2ccc(Cl)c(Cl)c2)O1 | -1.5
O=C(C[C@@H]1C=C[C@@H](NC(=O)CCN2CCCCC2)[C@H](CO)O1)Nc1ccc(-c2ccccc2)cc1 | 3.8
N#C[C@@H]1[C@@H](c2ccc(C3=CCCC3)cc2)[C@H](CO)N1c1nc(-c2ccccc2)cs1 | -0.2
CN1c2ccc(-c3ccccc3F)cc2[C@H]2[C@H](CCN2C(=O)Cc2ccccn2)[C@@H]1CO | -0.5
CO[C@@H]1CN(C)C(=O)c2cc(NS(=O)(=O)c3ccc(Oc4ccccc4)cc3)ccc2OC[C@@H](C)NC[C@@H]1C | -4.6
CCC(=O)N(C)C[C@@H]1Oc2cc(-c3cncnc3)ccc2S(=O)(=O)N([C@H](C)CO)C[C@H]1C | 2.7
CO[C@H]1CN(C)C(=O)c2ccc(NC(=O)Nc3cccc(F)c3)cc2OC[C@H](C)N(C)C[C@H]1C | -4.9
CCCNC(=O)C[C@@H]1CC[C@@H]2[C@H](COC[C@@H](O)CN2C(=O)Nc2c(C)noc2C)O1 | -1.9
O=C(C[C@@H]1C=C[C@H](NC(=O)CCN2CCCCC2)[C@H](CO)O1)NCc1ccc(Cl)c(Cl)c1 | 1.0
CC(C)NC(=O)N1CCCCN2[C@H](CO)[C@H](c3ccc(C#C[C@H](C)O)cc3)[C@@H]2C1 | -6.2
COc1cccc(NC(=O)N(C)C[C@@H]2Oc3cc(/C=C/c4ccccc4)ccc3S(=O)(=O)N([C@@H](C)CO)C[C@H]2C)c1 | -2.4
C[C@H](CO)N1C[C@H](C)[C@H](CN(C)Cc2ccccn2)Oc2ncc(C#Cc3ccc(F)cc3)cc2C1=O | 2.1
COc1ccc(CN(C)C[C@@H]2Oc3ccc(NC(=O)Cc4ccccc4)cc3CC(=O)N([C@H](C)CO)C[C@@H]2C)cc1 | -6.5
CC1(C(=O)NS(=O)(=O)c2cccs2)CCN1C(=O)C1(c2ccc(Cl)cc2)CCC1 (centres undefined) | -2.2
C[C@@H]1CN([C@H](C)CO)C(=O)c2cc(-c3ccccc3F)cnc2O[C@@H]1CN(C)Cc1ccccc1 | -1.8
CCCNC(=O)C1(C)CCCN(C(=O)c2ccccc2OC)C1 (centres undefined) | 0.0
Cc1ccc(S(=O)(=O)N(C)C[C@H]2Oc3ccc(NC(=O)C4CC4)cc3C(=O)N([C@@H](C)CO)C[C@@H]2C)cc1 | -0.5
Cc1noc(C)c1S(=O)(=O)Nc1ccc2c(c1)CC(=O)N([C@@H](C)CO)C[C@H](C)[C@@H](CN(C)Cc1ccc(C(F)(F)F)cc1)O2 | 1.0
C[C@@H]1CCCCO[C@H](CN(C)Cc2ccccc2)[C@@H](C)CN([C@H](C)CO)C(=O)c2cc(NC(=O)CCCN(C)C)ccc2O1 | -0.7
CCCC(=O)Nc1ccc2c(c1)C(=O)N(C)C[C@H](OC)[C@H](C)CN(Cc1ccccn1)[C@@H](C)CO2 | -1.5
C[C@H](CO)N1C[C@H](C)[C@H](CN(C)Cc2ccc3c(c2)OCO3)Oc2ccc(NS(=O)(=O)c3ccccc3)cc2CC1=O | 4.0
O=C(C[C@H]1C=C[C@H](NC(=O)CN2CCOCC2)[C@H](CO)O1)NC1CCCCC1 | -2.1
CCC(=O)N(C)C[C@H]1Oc2ncc(-c3cccc(OC)c3)cc2C(=O)N([C@@H](C)CO)C[C@H]1C | -3.9
C[C@@H](NC(=O)C[C@H]1CC[C@@H]2[C@H](COc3ccc(NS(=O)(=O)c4ccc(Cl)cc4)cc3C(=O)N2C)O1)c1ccccc1 | -1.5
O=C1O[C@@H](c2ccccc2)[C@@H](c2ccccc2)N2[C@@H](c3ccc(OCCO)cc3)[C@]3(C(=O)Nc4ccc(C#CCCO)cc43)[C@@H](C(=O)N3CCN(c4ncccn4)CC3)[C@H]12 | 0.7
COc1ccc(NC(=O)Nc2ccc3c(c2)C(=O)N([C@H](C)CO)C[C@@H](C)[C@@H](CN(C)S(=O)(=O)c2ccc(F)cc2)OCCCC[C@H](C)O3)cc1 | -0.7
C[C@@H]1CN([C@H](C)CO)C(=O)c2cc(NC(=O)Cc3ccccc3)ccc2O[C@@H]1CN(C)Cc1ccncc1 | -1.5
COc1ccc(S(=O)(=O)Nc2ccc3c(c2)CC(=O)N([C@@H](C)CO)C[C@@H](C)[C@H](CN(C)S(=O)(=O)c2c(C)noc2C)O3)cc1 | 10
Cc1ccc(-c2ccc([C@H]3[C@@H](CO)N4CCCCN(S(=O)(=O)c5ccccc5C)C[C@@H]34)cc2)cc1 | -3.7
CC(C)(C)c1ccc(CC(=O)N2CCC2(C)C(=O)NS(=O)(=O)Cc2ccccc2)cc1 (centres undefined) | -3.7
O=C(Cc1ccccn1)N[C@@H]1CC[C@@H](CCn2cc(-c3ccc(F)cc3)nn2)O[C@@H]1CO | -3.1
C[C@H]1CN([C@@H](C)CO)C(=O)c2cccc(NC(=O)c3ccncc3)c2O[C@@H]1CN(C)C(=O)Nc1ccccc1 | -0.8
C[C@@H]1CCCCO[C@H](CN(C)Cc2ccncc2)[C@@H](C)CN([C@H](C)CO)C(=O)c2cc(N(C)C)ccc2O1 | 3.5&2.2
CNC[C@H]1Oc2cc(C#CCC(C)C)ccc2S(=O)(=O)N([C@@H](C)CO)C[C@@H]1C | 7.8
O=C(C[C@H]1C[C@@H]2c3cc(NC(=O)Cc4ccncc4)ccc3O[C@@H]2[C@@H](CO)O1)NCc1ccc2c(c1)OCO2 | -0.4

The closing 4 records of the part above open the next one:
SMILES | MLL AF4-AF9 inh
C[C@H]1CN([C@@H](C)CO)C(=O)c2cccc(NC(=O)c3ccncc3)c2O[C@@H]1CN(C)C(=O)Nc1ccccc1 | -0.8
C[C@@H]1CCCCO[C@H](CN(C)Cc2ccncc2)[C@@H](C)CN([C@H](C)CO)C(=O)c2cc(N(C)C)ccc2O1 | 3.5&2.2
CNC[C@H]1Oc2cc(C#CCC(C)C)ccc2S(=O)(=O)N([C@@H](C)CO)C[C@@H]1C | 7.8
O=C(C[C@H]1C[C@@H]2c3cc(NC(=O)Cc4ccncc4)ccc3O[C@@H]2[C@@H](CO)O1)NCc1ccc2c(c1)OCO2 | -0.4
Cc1noc(C)c1S(=O)(=O)Nc1ccc2c(c1)C(=O)N([C@@H](C)CO)C[C@@H](C)[C@@H](CN(C)C(=O)Nc1ccc3c(c1)OCO3)O2 | -0.1
C[C@@H]1CN([C@H](C)CO)C(=O)c2cc(C#Cc3ccccc3)cnc2O[C@H]1CN(C)C(=O)C1CC1 | -7.1
CC(C)NC(=O)N(C)C[C@H]1Oc2c(NC(=O)Nc3ccccc3)cccc2C(=O)N([C@H](C)CO)C[C@H]1C | -0.7
COc1ccc(NC(=O)N(C)[C@H]2C[C@H]3c4[nH]c5ccc(-c6ccc(OC)cc6)cc5c4CCN3C(=O)[C@H]2[C@H](C)O)cc1 | 1.3
C[C@@H]1CN([C@H](C)CO)C(=O)c2cc(NS(=O)(=O)c3ccc(Cl)cc3)ccc2O[C@@H](C)CCCCO[C@H]1CN(C)C(=O)C1CCCCC1 | 4.5
O=C(C[C@H]1C[C@@H]2c3cc(NC(=O)C4CCC4)ccc3O[C@@H]2[C@@H](CO)O1)NC1CCCCC1 | 0.6
O=S(=O)(c1ccccc1)N1C[C@H]2[C@@H](c3ccccc31)[C@H](CO)N2Cc1ccc(F)cc1 | 2.5
O=C(NC1CCCCC1)N[C@@H]1CC[C@H](CCNS(=O)(=O)c2ccc(Cl)cc2)O[C@H]1CO | 1.7
CNC[C@@H]1Oc2cc(C#Cc3ccc(F)cc3)ccc2S(=O)(=O)N([C@H](C)CO)C[C@H]1C | 10
Cn1cc(-c2ccc(C(=O)NCc3cccc(Cl)c3)c3occc23)cn1 | 3.8
O=C(C[C@@H]1C[C@@H]2c3cc(NC(=O)Nc4ccccc4F)ccc3O[C@@H]2[C@H](CO)O1)NC1CCCC1 | -15
O=C(C[C@H]1CC[C@@H](NC(=O)C2CC2)[C@@H](CO)O1)NCCCN1CCOCC1 | -2.0
CC(C)C#Cc1cnc2c(c1)C(=O)N([C@@H](C)CO)C[C@H](C)[C@@H](CN(C)Cc1ccccc1F)O2 | 3.6
C[C@H]1CN([C@@H](C)CO)S(=O)(=O)c2ccc(C#CCN(C)C)cc2O[C@H]1CN(C)Cc1cccnc1 | 1.4
O=C(NC1CCCC1)N1CCCCN2[C@H](CO)[C@H](c3ccc(-c4ccncc4)cc3)[C@H]2C1 | -4.0
CO[C@H]1CN(C)C(=O)c2ccc(NC(=O)Nc3ccccc3)cc2OC[C@H](C)N(C(=O)CN(C)C)C[C@@H]1C | 2.4
COc1ccccc1N(C)S(=O)(=O)c1ccc(C(=O)NCc2ccccc2CN2CCCC2)cc1 | 8.1
CCCN1C[C@H](C)[C@@H](OC)CN(C)C(=O)c2ccc(NC(=O)c3ccccc3)cc2OC[C@H]1C | -0.9
C[C@@H]1CCCCO[C@@H](CN(C)Cc2ccc(Cl)c(Cl)c2)[C@H](C)CN([C@H](C)CO)C(=O)c2cc(NC(=O)NC3CCCCC3)ccc2O1 | 1.8
COc1ccc(CN2C(=O)CSCC2(C)C(=O)NCc2ccccc2)cc1OC (centres undefined) | 2.7
COc1ccc2c3c([nH]c2c1)[C@H](CO)N(C(=O)c1ccncc1)CC31CCN(C(=O)C2CCC2)CC1 | 0.3
COCC(=O)N1C[C@H](C)[C@H](OC)CN(C)C(=O)c2cc(NC(=O)C3CCC3)ccc2OC[C@H]1C | -0.4
